# Vaccinia inh = Vaccinia orthopox stage-specific inhibition; activity change (mCherry), % (test concentration not listed); Vaccinia-infected cells, mCherry/Venus stage reporter fluorescence; active compounds read low; some inactives read as strong as hits; actives 0.01% (n = 89,000);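 active = mCherry past -33% and 40 or more points under the early reporter, replicates agreeing; inconclusive = past -33% without that gap or agreement; tested in A549 cells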;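 also: scaled between vehicle wells and reference inhibitor wells; 23 nL library stock went into each well; one replicate is shown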
# Vaccinia inh Venus = second read-out of Vaccinia inh, no call of its own (marks repeat the call); activity change (Venus), %; measured here: Venus reporter, other viral stage;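 negative = less Venus signal; first of two replicates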
# * marks the source's active call; other numbers are inactive results; u = inconclusive; x = no result given. These rows are one share of the data (hit frequency here may not be typical).
SMILES,Vaccinia inh,Vaccinia inh Venus
CO[C@@H]1CN(C)C(=O)c2ccc(NS(=O)(=O)c3ccc(C)cc3)cc2OC[C@H](C)N(C)C[C@@H]1C,-3.6,-6.3
CO[C@H]1CN(C)C(=O)c2cc(NC(C)=O)ccc2OC[C@H](C)N(C(=O)C2CCC2)C[C@H]1C,1.6,5.1
CCC(=O)N(C)C[C@H]1Oc2ncc(C#CCC3CCCC3)cc2C(=O)N([C@H](C)CO)C[C@@H]1C,-3.3,-9.2
C[C@H](CO)N1C[C@H](C)[C@H](CN(C)Cc2ccc(Cl)c(Cl)c2)Oc2ccc(NC(=O)Nc3ccc(C(F)(F)F)cc3)cc2C1=O,u,x
CO[C@H]1CN(C)C(=O)c2cc(NS(=O)(=O)c3ccccc3)ccc2OC[C@H](C)N(Cc2nccs2)C[C@H]1C,3.9,1.2
CC(C)NC(=O)Nc1ccc2c(c1)CC(=O)N([C@@H](C)CO)C[C@@H](C)[C@H](CN(C)Cc1ccc3c(c1)OCO3)O2,-13.9,-14.3
Cc1cccc(-c2ccc([C@H]3[C@H]4CN(C(=O)c5cccnc5)CCCCN4[C@H]3CO)cc2)c1,u,x
C[C@H](CO)N1C[C@H](C)[C@H](CN(C)C(=O)Nc2ccc(F)cc2)OCCCC[C@H](C)Oc2ccc(NC(=O)c3ccncc3)cc2C1=O,7.9,3.1
COc1cccc(S(=O)(=O)N(C)C[C@H]2Oc3cc(C#CCC(C)C)ccc3S(=O)(=O)N([C@@H](C)CO)C[C@H]2C)c1,u,x
C[C@H](CO)N1C[C@H](C)[C@@H](CN(C)S(=O)(=O)c2cn(C)cn2)Oc2ccc(NC(=O)Nc3ccc(C(F)(F)F)cc3)cc2CC1=O,1.7,3.3
O=C(C1CCC1)N1CC2(C1)[C@H](c1ccccc1)[C@H](CO)N2C(=O)NC1CCCC1,-9.1,0.0
CCC(=O)N(C)C[C@H]1Oc2ncc(-c3ccc(C#N)cc3)cc2C(=O)N([C@H](C)CO)C[C@@H]1C,6.0,3.7
CCN(C[C@H]1[C@@H](c2ccccc2)[C@H](CO)N1C(=O)COC)S(C)(=O)=O,5.2,8.3
O=C(C1CCCCC1)N1C[C@H]2[C@@H](c3ccccc31)[C@H](CO)N2C(=O)Cc1ccccn1,u,x
CCC(=O)Nc1ccc2c(c1)C(=O)N(C)[C@@H]1CC[C@H](CC(=O)NC3Cc4ccccc4C3)O[C@H]1CO2,-4.6,-3.6
CO[C@H]1CC[C@H]2CCOc3ccc(C#N)cc3C(=O)N(C)C[C@@H](OC)[C@H](C)C(=O)N(C)C[C@H]1O2,41.0,26.1
C[C@@H]1CN([C@H](C)CO)C(=O)c2ccccc2-c2ccccc2CO[C@H]1CN(C)C(=O)Nc1ccc(-c2ccccc2)cc1,-26.2,-18.8
CCCNC(=O)[C@@H]1[C@@H](CO)[C@@H]2Cn3c(ccc(C4=CCCC4)c3=O)[C@@H]2N1C(=O)CC1CC1,25.6,15.1
CC(C)NC(=O)Nc1ccc2c(c1)CC(=O)N([C@H](C)CO)C[C@@H](C)[C@H](CN(C)C(=O)Nc1ccc3c(c1)OCO3)O2,4.8,-4.1
CC(C)NC(=O)N(C)C[C@H]1Oc2cc(C3=CCCCC3)ccc2S(=O)(=O)N([C@H](C)CO)C[C@@H]1C,-13.3,-11.1
COc1ccc(NC(=O)N(C)C[C@@H]2OCCCC[C@H](C)Oc3ccc(NC(=O)Nc4ccc5c(c4)OCO5)cc3C(=O)N([C@H](C)CO)C[C@@H]2C)cc1,21.8,14.4
C[C@@H]1CN([C@@H](C)CO)C(=O)Cc2cc(NC(=O)Nc3cccc4ccccc34)ccc2O[C@@H]1CN(C)C(=O)Nc1ccc(F)cc1,9.4,7.9
C[C@H](CO)N1C[C@H](C)[C@@H](CN(C)Cc2ccc3c(c2)OCO3)OCc2cnnn2CCCC1=O,-0.4,6.1
CO[C@H]1CN(C)C(=O)c2ccc(NS(=O)(=O)c3cn(C)cn3)cc2OC[C@@H](C)NC[C@@H]1C,14.0,11.5
COc1ccccc1S(=O)(=O)N(C)C[C@@H]1Oc2ncc(-c3ccc(C)cc3)cc2C(=O)N([C@@H](C)CO)C[C@H]1C,-22.3,-10.6
CCC(=O)N1[C@H](CO)[C@H](c2ccc(-c3ccccc3)cc2)[C@H]1CNC(=O)C1CC1,-1.2,2.4
COc1ccc(S(=O)(=O)N(C)C[C@@H]2OCCCC[C@H](C)Oc3ccc(NC(=O)Nc4ccc(F)cc4)cc3C(=O)N([C@H](C)CO)C[C@H]2C)cc1,-2.5,-0.1
O=C(C[C@@H]1C[C@@H]2c3cc(NC(=O)c4ccc5c(c4)OCO5)ccc3O[C@@H]2[C@@H](CO)O1)NCc1cccc(F)c1,-6.3,-8.3
COc1cccc(S(=O)(=O)Nc2ccc3c(c2)[C@H]2C[C@@H](CC(=O)NCCc4ccccc4)O[C@@H](CO)[C@H]2O3)c1,-10.1,-4.8
Cc1ccc(S(=O)(=O)N(C)C[C@@H]2OCCCC[C@H](C)Oc3ccc(NS(C)(=O)=O)cc3C(=O)N([C@H](C)CO)C[C@@H]2C)cc1,-13.8,-10.6
C[C@@H]1CCCCO[C@H](CN(C)Cc2ccccc2)[C@H](C)CN([C@H](C)CO)C(=O)c2cc(NS(=O)(=O)c3ccc(Cl)cc3)ccc2O1,u,x
CN(C)C(=O)c1cccc(-c2ccc([C@@H]3[C@H](C#N)N(C(=O)C4CC4)[C@H]3CO)cc2)c1,13.4,7.5
COc1ccc(NC(=O)N(C)C[C@H]2OCCCC[C@H](C)Oc3ccc(NC(=O)NC4CCCCC4)cc3C(=O)N([C@H](C)CO)C[C@@H]2C)cc1,-5.8,-14.9
Cc1noc(C)c1S(=O)(=O)Nc1ccc2c(c1)C(=O)N([C@H](C)CO)C[C@@H](C)[C@H](CN(C)Cc1ccc(C(=O)O)cc1)O2,8.4,8.1
CCCC(=O)Nc1ccc2c(c1)OC[C@@H](C)N(S(=O)(=O)c1cn(C)cn1)C[C@@H](C)[C@H](OC)CN(C)C2=O,6.8,0.4
O=C(C[C@@H]1CC[C@@H]2[C@H](COC[C@H](O)CN2C(=O)c2ccccn2)O1)NC1CCC1,1.2,-4.4
CCCN(C)C[C@H]1OCCCC[C@H](C)Oc2ccc(NS(=O)(=O)c3ccc(Cl)cc3)cc2C(=O)N([C@H](C)CO)C[C@H]1C,-4.9,-2.6
CCN1[C@H](C(=O)NCc2ccccc2)[C@@H](CO)[C@@H]2Cn3c(ccc(-c4ccccc4)c3=O)[C@@H]21,9.7,8.5
C[C@@H]1CN([C@H](C)CO)C(=O)c2cc(Br)cnc2O[C@@H]1CN(C)Cc1ccccn1,14.3,4.8
CCCNC(=O)N(C)C[C@H]1Oc2ncc(C#CC3CCCCC3)cc2C(=O)N([C@@H](C)CO)C[C@H]1C,-24.4,-18.0

# Whole records as entered above. Values in the order: Vaccinia inh	Vaccinia inh Venus
# Record of `C[C@H](CO)N1C[C@H](C)[C@@H](CN(C)Cc2ccc3c(c2)OCO3)OCc2cnnn2CCCC1=O` : -0.4	6.1
# Record of `CCCNC(=O)N(C)C[C@H]1Oc2ncc(C#CC3CCCCC3)cc2C(=O)N([C@@H](C)CO)C[C@H]1C` : -24.4	-18.0
# Record of `CO[C@H]1CN(C)C(=O)c2ccc(NS(=O)(=O)c3cn(C)cn3)cc2OC[C@@H](C)NC[C@@H]1C` : 14.0	11.5

# Continued.
SMILES,Vaccinia inh,Vaccinia inh Venus
CO[C@@H](CN(C)Cc1cc(F)ccc1F)[C@H](C)CN(C(=O)Nc1ccc(C(F)(F)F)cc1)[C@H](C)CO,-0.9,4.6
Cc1noc(C)c1NC(=O)N(C)C[C@@H]1OCCCC[C@@H](C)Oc2ccc(NC(=O)CCC(F)(F)F)cc2C(=O)N([C@H](C)CO)C[C@@H]1C,40.8,16.2
C[C@@H](NC(=O)C[C@@H]1CC[C@H]2[C@@H](COC[C@H](O)CN2C(=O)Nc2cccc(F)c2)O1)c1ccccc1,-11.6,-10.7
C[C@H]1CN([C@@H](C)CO)C(=O)c2cccc(NC(=O)CCCCCC(=O)Nc3ccccc3N)c2O[C@@H]1CN(C)Cc1ccc(Oc2ccccc2)cc1,u,x
CC(C)CC#Cc1ccc2c(c1)O[C@@H](CN(C)C(=O)CN(C)C)[C@H](C)CN([C@@H](C)CO)S2(=O)=O,-30.1,-22.7
C[C@H]1CN([C@@H](C)CO)C(=O)c2cc(C#CC3CCCCC3)cnc2O[C@@H]1CN(C)C(=O)NC1CCCC1,-10.9,-16.3
CCCN1[C@@H]2c3ccc(-c4ccccc4F)c(=O)n3C[C@H]1[C@H](CO)[C@H]2C(=O)NCC,7.9,3.4
CO[C@@H]1CN(C)C(=O)c2ccc(NS(=O)(=O)c3ccc(Cl)cc3)cc2OC[C@H](C)N(C)C[C@@H]1C,1.5,10.8
C[C@H]1CCCCO[C@H](CN(C)C(=O)Nc2ccc(C(F)(F)F)cc2)[C@@H](C)CN([C@@H](C)CO)C(=O)c2cc(NC(=O)c3ccccc3)ccc2O1,-28.4,-6.0
C[C@H](CO)N1C[C@H](C)[C@@H](CN(C)S(=O)(=O)c2cn(C)cn2)Oc2ccc(NC(=O)Nc3ccccc3)cc2C1=O,20.6,14.9
O=S(=O)(c1cccc(F)c1)N1CC[C@@H]2[C@H](CO)Nc3ccc(C#Cc4ccccc4F)cc3[C@@H]21,0.1,-0.4
O=C(Nc1cccc(F)c1)N[C@H]1CC[C@@H](CCn2cc(Cc3ccccc3)nn2)O[C@@H]1CO,-10.8,1.2
COc1ccc(NC(=O)Nc2ccc3c(c2)C(=O)N([C@H](C)CO)C[C@H](C)[C@H](CN(C)C)OCCCC[C@H](C)O3)cc1,3.8,13.9
O=C(c1cccnc1)N1CC(=O)N2[C@H](CO)[C@H](c3ccc(/C=C/c4ccccc4)cc3)[C@@H]2C1,-3.8,-1.2
C[C@@H]1CCCCO[C@H](CN(C)Cc2ccc(Cl)c(Cl)c2)[C@@H](C)CN([C@@H](C)CO)C(=O)c2cc(N(C)C)ccc2O1,u,x
COc1ccccc1-c1ccc2c(c1)O[C@H](CN(C)C(=O)Nc1cccc(F)c1)[C@@H](C)CN([C@@H](C)CO)S2(=O)=O,u,x
C[C@H]1CN([C@@H](C)CO)C(=O)Cc2cc(NC(=O)Cc3ccccc3)ccc2O[C@H]1CN(C)Cc1ccncc1,3.4,1.4
O=C(Nc1ccc(Cl)c(Cl)c1)N[C@@H]1CC[C@@H](CCn2cc(C3CCCC3)nn2)O[C@H]1CO,-16.2,-5.3
C[C@@H]1CN([C@H](C)CO)C(=O)Cc2cc(NC(=O)CCCN(C)C)ccc2O[C@H]1CN(C)C(=O)Nc1ccc2c(c1)OCO2,7.0,4.6
CCCN1C[C@@H](C)[C@@H](OC)CN(C)C(=O)c2cc(NC(=O)c3ccccc3F)ccc2OC[C@@H]1C,4.3,1.4

# Compounds above containing a cyano group:
SMILES,Vaccinia inh,Vaccinia inh Venus
CCC(=O)N(C)C[C@H]1Oc2ncc(-c3ccc(C#N)cc3)cc2C(=O)N([C@H](C)CO)C[C@@H]1C,6.0,3.7
CO[C@H]1CC[C@H]2CCOc3ccc(C#N)cc3C(=O)N(C)C[C@@H](OC)[C@H](C)C(=O)N(C)C[C@H]1O2,41.0,26.1
CN(C)C(=O)c1cccc(-c2ccc([C@@H]3[C@H](C#N)N(C(=O)C4CC4)[C@H]3CO)cc2)c1,13.4,7.5

# The listing continues.
SMILES,Vaccinia inh,Vaccinia inh Venus
CCC(=O)N1C[C@H](O)COC[C@H]2O[C@@H](CC(=O)NCc3ccc(Oc4ccccc4)cc3)CC[C@@H]21,1.7,2.9
COc1ccc(NC(=O)N[C@H]2CC[C@@H](CC(=O)NC3CCC3)O[C@@H]2CO)cc1,2.0,3.3
O=C(C[C@H]1CC[C@@H]2NC[C@H](O)COC[C@H]2O1)NC1Cc2ccccc2C1,1.5,10.7
COc1cccc(NC(=O)N2C[C@@H](O)COC[C@H]3O[C@@H](CC(=O)NCCCN4CCOCC4)CC[C@@H]32)c1,17.8,-3.1
CO[C@@H]1CN(C)C(=O)c2ccc(NC(C)=O)cc2OC[C@H](C)N(C(=O)c2ccccn2)C[C@@H]1C,18.2,4.8
C[C@H]1CCCCO[C@H](CN(C)S(=O)(=O)c2cccs2)[C@@H](C)CN([C@@H](C)CO)C(=O)c2cc(NC(=O)Nc3ccc(C(F)(F)F)cc3)ccc2O1,-10.3,-0.4
COc1ccc(S(=O)(=O)Nc2ccc3c(c2)CC(=O)N([C@@H](C)CO)C[C@@H](C)[C@H](CN(C)Cc2ccc(C(=O)O)cc2)O3)cc1,1.9,10.6
N#C[C@@H]1[C@H](c2ccccc2-c2cccc(F)c2)[C@H](CO)N1C(=O)C1CC1,6.1,8.7
CCC(=O)N(C)C[C@@H]1Oc2cc(-c3cccnc3)ccc2S(=O)(=O)N([C@H](C)CO)C[C@H]1C,12.4,6.1
C[C@H]1CN([C@@H](C)CO)C(=O)c2cc(NC(=O)Nc3ccc(F)cc3)ccc2O[C@H]1CN(C)S(=O)(=O)c1ccc(Cl)cc1,-13.7,-9.2
CCCNC(=O)N(C)C[C@@H]1Oc2cc(C#CCC(C)C)ccc2S(=O)(=O)N([C@@H](C)CO)C[C@@H]1C,-13.5,-7.8
CC(C)NC(=O)N(C)C[C@@H]1Oc2cc(-c3ccccc3)ccc2S(=O)(=O)N([C@@H](C)CO)C[C@@H]1C,10.4,2.5
Cc1ccc(S(=O)(=O)Nc2ccc3c(c2)C(=O)N([C@@H](C)CO)C[C@@H](C)[C@@H](CN(C)Cc2ccc(-c4ccccc4)cc2)O3)cc1,u,x
C[C@@H]1CCCCO[C@@H](CN(C)C(=O)c2ccccc2)[C@H](C)CN([C@H](C)CO)C(=O)c2cc(NS(=O)(=O)c3cccs3)ccc2O1,0.8,-8.6
C[C@H]1CN([C@@H](C)CO)C(=O)Cc2cc(NC(=O)Nc3ccc(F)cc3)ccc2O[C@@H]1CN(C)C(=O)Nc1ccc(F)cc1,4.5,3.6
CO[C@@H]1CN(C)C(=O)c2cc(NC(=O)C3CC3)ccc2OC[C@@H](C)N(Cc2ccc(F)cc2)C[C@H]1C,-13.2,-2.3

# Screening data as filed in PubChem.
